# Polio RdRp inh = poliovirus RdRp elongation inhibitors, primary screen, biochemical, fluorescence polarization, total intensity; Genome polyprotein (Poliovirus type 1 (strain Mahoney)), P03300; % elongation, % (compound at 16.7 µg/mL); 150,000 compounds, 0.66% hits; poliovirus polymerase elongation; active compounds read low; in the data active = % elongation below about 90%; also: some results filed as inactive read as strong as hits
# Target sequence (P03300 1749-2209 limits assumed): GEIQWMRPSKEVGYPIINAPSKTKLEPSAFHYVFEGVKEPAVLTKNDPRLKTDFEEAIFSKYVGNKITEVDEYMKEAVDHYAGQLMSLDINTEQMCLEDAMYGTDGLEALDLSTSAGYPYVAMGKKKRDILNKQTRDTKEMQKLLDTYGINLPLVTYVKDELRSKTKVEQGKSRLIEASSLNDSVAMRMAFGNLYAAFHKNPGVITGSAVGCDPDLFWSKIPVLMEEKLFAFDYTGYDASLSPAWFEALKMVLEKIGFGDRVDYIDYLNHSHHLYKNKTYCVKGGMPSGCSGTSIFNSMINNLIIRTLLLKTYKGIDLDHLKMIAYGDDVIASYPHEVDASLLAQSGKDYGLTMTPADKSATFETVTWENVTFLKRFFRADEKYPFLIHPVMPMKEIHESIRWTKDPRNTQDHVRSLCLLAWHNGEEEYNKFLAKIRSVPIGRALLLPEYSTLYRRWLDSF
# Mtb MenB inh = M. tuberculosis MenB inhibitors, primary screen, biochemical, absorbance; 1,4-dihydroxy-2-naphthoyl-CoA synthase (Mycobacterium tuberculosis (strain ATCC 25618 / …; MenB enzyme assay, absorbance read-out; some hits fall short of the stated cut; inhibition, %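 (about 12 µg/mL by stock and volumes)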; 100,000 compounds, 0.43% hits;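 active = mean of two replicates above 30%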;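 also: 0% = no compound and 100% = wells with inactive enzyme; the first replicate is given; strong numbers were not always called active; inactives centre near -10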
# Target sequence (P9WNP5 whole entry, looked up): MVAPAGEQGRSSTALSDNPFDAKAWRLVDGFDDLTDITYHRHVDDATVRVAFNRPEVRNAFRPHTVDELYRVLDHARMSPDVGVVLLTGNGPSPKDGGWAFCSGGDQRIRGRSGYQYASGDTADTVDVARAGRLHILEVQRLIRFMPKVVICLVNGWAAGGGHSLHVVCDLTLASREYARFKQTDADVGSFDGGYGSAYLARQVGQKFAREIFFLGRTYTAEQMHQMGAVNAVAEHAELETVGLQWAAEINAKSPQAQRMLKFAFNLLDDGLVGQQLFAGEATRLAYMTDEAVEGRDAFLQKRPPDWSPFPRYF
# Mtb MbtI inh = MbtI salicylate synthase inhibitors, primary screen, biochemical, fluorescence intensity; P9WFX0; 100,000 compounds, 0.89% hits; inhibition, %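 (about 17 µg/mL by stock and volumes)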; purified MbtI enzyme, fluorescence intensity read-out;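 active = above 50% in both replicates, above 80% if mildly self-fluorescent; inactive = the rest, strongly fluorescent compounds included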;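 also: 0% = mean of negative and 100% = mean of positive controls; one replicate is shown; some compounds called inactive have numbers as strong as hits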
# Polio RdRp inh intensity = also measured in Polio RdRp inh; calls as there; % elongation; measured here: total intensity read-out; formula for this scale not given here;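 total fluorescence in place of polarization; lower means less elongation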
# An asterisk follows results filed as active; x = not tested or not shown; & = joins results of further samples.
(1) O=C1c2ccccc2-c2c1c1ccccc1c(=O)n2CC1CC1
(2) O=C(O)c1c[nH]c2ccccc2c1=O
(3) N#Cc1oc2ccccc2c1NC(=O)Cc1c(Cl)cccc1Cl
(4) CN1/C(=C\C=N\c2ccccn2)C(C)(C)c2ccccc21
(5) c1ccc(-n2nnnc2N2CCCC2)cc1
(6) COc1ccc(CCNC(=O)c2nc3ccccc3c(=O)n2-n2cccc2)cc1OC
(7) COC(=O)Cn1c(=NC(=O)c2ccccc2)sc2cc(OC)ccc21
(8) CCc1ccc(C(=O)c2cc3ccc(O)cc3oc2=O)cc1

assay / entry	1	2	3	4	5	6	7	8
Polio RdRp inh	110	108&103	101	108	106	101	99	98
Polio RdRp inh intensity	108	112&101	102	133	102	101	103	98
Mtb MenB inh	-2	-24&1	-13	-364	-59	-15	-8	-242
Mtb MbtI inh	-1	30	12	42	-5	-3	-11	40

(9) CCSc1nnc(-c2cccc(Cl)c2)n1CC
(10) O=C(O)C1C2C=CC(C2)C1C(=O)N1CCN(Cc2ccccc2)CC1 (configuration not stated)
(11) O=C(NC1CCCCC1)C1CCCN(S(=O)(=O)c2cccs2)C1 (configuration not stated)
(12) CCN1/C(=C\C=C\C(=O)c2ccccc2OC)Sc2ccccc21
(13) Cc1nc(NCCC(=O)O)c2c3c(sc2n1)CCCC3
(14) O=C(COC(=O)C1CCN(c2ccc(C(F)(F)F)cn2)CC1)NC1CCCCC1
(15) Cc1cc(C)n(-c2ccc3ccccc3n2)n1
(16) COc1ccc(NC(=O)C2C3C=CC4(O3)C2C(=O)N(CCCN2CCOCC2)C4C(=O)NC2CCCC(C)C2C)cc1 (configuration not stated)

assay / entry	9	10	11	12	13	14	15	16
Polio RdRp inh	99	80*	105	73	104	99	100	101
Polio RdRp inh intensity	100	72*	104	186	102	97	102	101
Mtb MenB inh	-12	-28	-8	x	-36	-8	-8	7
Mtb MbtI inh	-45	-1	9	4	4	-7	2	-9

(17) Cc1ccccc1-n1c(SC2CCOC2=O)nnc1-c1ccncc1 (configuration not stated)
(18) CC1(C)CC(=NN=C2CC(C)(C)NC(C)(C)C2)CC(C)(C)N1
(19) Cc1oc(-c2ccccc2F)nc1CSCC(=O)NC1CC1
(20) CCc1nc(-c2ccccc2)cc(=O)[nH]1
(21) COCCNC(=O)c1c[nH]c2ccccc2c1=O
(22) C=CCC(Nc1ccc(OC)c(OC)c1)c1ccco1 (configuration not stated)
(23) CC1(C)OC[C@@H]([C@H](O)P(=O)(c2ccccc2)c2ccccc2)O1
(24) O=c1c2ccccc2sn1-c1ccc(S(=O)(=O)N2CCOCC2)cc1

assay / entry	17	18	19	20	21	22	23	24
Polio RdRp inh	109	100	100	102	103	104	104	102
Polio RdRp inh intensity	113	103	102	102	101	103	101	102
Mtb MenB inh	-13	4	6	x	-38	-58	2	-31
Mtb MbtI inh	6	1	36	-1	4	13	1	43

(25) O=C1c2ccccc2C(=O)C2(O)OCCOC12O (configuration not stated)
(26) CN1CCc2nc3sc4c(=O)[nH]c(=O)[nH]c4c3cc2C1
(27) Cc1ccc(C)c(C(=O)CCC(=O)NCc2ccc3c(c2)OCO3)c1
(28) CCS(=O)c1ccccc1C(=O)OC(C)C(=O)Nc1ncc(Cl)cc1Cl (configuration not stated)
(29) O=C1NC(=O)C(O)(c2c(O)c3ccccc3n(Cc3ccccc3)c2=O)C(=O)N1
(30) COC(=O)C(C)NC(=O)C1CCCCC1 (configuration not stated)
(31) O=C(CSc1ccc(Br)cc1)NCCCc1ccccc1
(32) O=C(c1cc2ccc3cccnc3c2[nH]1)N1CCN(Cc2ccccc2)CC1

assay / entry	25	26	27	28	29	30	31	32
Polio RdRp inh	90*	102	100	104	100	102	100	104
Polio RdRp inh intensity	89*	102	102	95	100	106	97	101
Mtb MenB inh	-4	-33	-9	-9	2	-10	x	-16
Mtb MbtI inh	115	18	7	6	10	15	-6	-37

(33) CCSc1nc(=O)n(Cc2cccnc2)c2c1CCC2
(34) Cn1ccnc1SCc1csc(Nc2ccccc2)n1
(35) CCn1cc(CCC(=O)NC2CCCC(C)C2C)c2ccccc21 (configuration not stated)
(36) O=C(COc1ccc(-n2cnnn2)cc1)N1CCCc2ccccc21
(37) CCCCNC(=O)N1CCN(C(c2ccccc2)c2ccccc2)CC1
(38) CS(=O)(=O)c1ccc(-c2cccc(NC(=O)c3ccc4c(c3)OCO4)c2)nn1
(39) CN(C)c1ccc(CN2CCCC2)cc1
(40) CCOc1ccccc1C(=O)Nc1c(O)c2ccccc2oc1=O

assay / entry	33	34	35	36	37	38	39	40
Polio RdRp inh	100	104	105	100	103	104	102	103
Polio RdRp inh intensity	106	108	99	99	95	102	104	101
Mtb MenB inh	2	-1	-8	-7	-13	-18	4	0
Mtb MbtI inh	15	5	2	0	-9	-3	-21	2

(41) COc1ccc(-c2noc(CNC(=O)C34CC5CC(CC(C5)C3)C4)n2)cc1
(42) Cc1ccc(S(=O)(=O)C2(S(=O)(=O)c3ccc(C)cc3)CCCC2)cc1
(43) CCC(C)NS(=O)(=O)c1ccc2[nH]c3c(c2c1)CCCC3 (configuration not stated)
(44) Brc1ccc(N=C(c2ccccc2)c2ccncc2)cc1
(45) O=C(Cn1c(=O)oc2ccccc21)NCCc1ccco1
(46) COCCN1Cc2cccc(C(=O)NC3CCCC3)c2C1=O
(47) N#Cc1ccc(OCC(=O)N2CCN(c3ccc(O)cc3)CC2)cc1
(48) O=C1Cc2ccccc2C(=O)N1Cc1ccccn1

assay / entry	41	42	43	44	45	46	47	48
Polio RdRp inh	101	100	100	111	101	103	100	85*
Polio RdRp inh intensity	103	101	103	109	101	103	100	83*
Mtb MenB inh	-16	-34	-22	-19	-12	-3	-14	-62
Mtb MbtI inh	-6	-7	-11	x	16	1	100	-8

(49) Cc1cc(C)n(-c2nc3ccccc3nc2N2CCN(C(=O)c3ccccc3Br)CC2)n1
(50) Cn1c(N)c(C(=O)CN2CCN(S(=O)(=O)c3ccccc3C(F)(F)F)CC2)c(=O)n(C)c1=O
(51) O=C(c1ccc2c(c1)N(Cc1ccccc1)C(=O)c1ccccc1S2(=O)=O)N1CCCCC1
(52) Cn1cnnc1SCC(=O)Nc1ccc(Cl)cc1C(F)(F)F
(53) CSc1ncc(C(=O)Nc2cccc(F)c2)cn1
(54) C[C@H](NC(=O)c1ccco1)C(=O)Nc1ccc2oc3ccccc3c2c1
(55) CNC(=O)NC(=O)CSc1ncnc2sc(-c3ccccc3)cc12
(56) COC(=O)c1ccc(-n2c(C)cc(C(=O)CC#N)c2C)cc1

assay / entry	49	50	51	52	53	54	55	56
Polio RdRp inh	103	107	103	101	103	108	110	105
Polio RdRp inh intensity	101	109	101	94	103	111	111	110
Mtb MenB inh	-42	-18	-7	x	-23	-18	17	x
Mtb MbtI inh	-15	-8	4	-2	14	-1	-6	-8

(57) Nc1noc2c1C(C1CC=CCC1)C1=C2CCCC1=O (configuration not stated)
(58) S=C(NCC(c1cccnc1)N1CCOCC1)Nc1ccccc1 (configuration not stated)
(59) Cc1ccc(S(=O)(=O)Nc2nc3ccccc3nc2N2CCN(c3ccccc3)CC2)cc1
(60) NC(=O)CCN1C(=O)c2ccccc2C1=O
(61) O=C(c1ccccn1)N1CCc2ccccc2C1
(62) COc1ccc(C(=O)OCC(=O)c2ccc3[nH]c(=O)[nH]c3c2)c(OC)c1
(63) c1ccc2c(c1)c1ccccc1c1nc(N3CCOCC3)nnc21
(64) CC(C)c1ccc(NC(=S)NCc2ccc(C#N)cc2)cc1

assay / entry	57	58	59	60	61	62	63	64
Polio RdRp inh	100	102	102	101	91	88*	96	103
Polio RdRp inh intensity	101	106	108	103	94	95*	98	111
Mtb MenB inh	-93	-5	-48	-3	-24	-17	11	-10
Mtb MbtI inh	1	-5	-42	-1	10	1	3	-9

# Ordered by length of the SMILES (ascending): 3 of the compounds above.
(57) Nc1noc2c1C(C1CC=CCC1)C1=C2CCCC1=O (configuration not stated)
(64) CC(C)c1ccc(NC(=S)NCc2ccc(C#N)cc2)cc1
(59) Cc1ccc(S(=O)(=O)Nc2nc3ccccc3nc2N2CCN(c3ccccc3)CC2)cc1

assay / entry	57	64	59
Polio RdRp inh	100	103	102
Polio RdRp inh intensity	101	111	108
Mtb MenB inh	-93	-10	-48
Mtb MbtI inh	1	-9	-42

# (continued)
(65) CCOC(=O)C1=C(C)NC(C)=C(C(=O)OCC)C1C(=O)OCN1C(=O)c2ccccc2C1=O
(66) COc1cccc(Nc2nc3c(S(=O)(=O)c4ccccc4)nnn3c3ccsc23)c1
(67) C=CCn1c(SCC(=O)Nc2sc3c(c2C(=O)OC)CCC3)nnc1-c1cccnc1
(68) Cc1cc(NC(=O)Nc2ccc(Cl)cc2)n(C(C)(C)C)n1
(69) COc1c(F)c(F)c(C(=O)Nc2ccc(N3CCN(S(C)(=O)=O)CC3)cc2)c(F)c1F
(70) Oc1ccc(-c2nc(-c3c[nH]c4ccccc34)cs2)cc1
(71) Cc1ccc(-n2nc3c(c2NC(=O)/C=C\c2ccccc2)CSC3)cc1
(72) COc1ccccc1NCC(C)(C)CC=C(C)C

assay / entry	65	66	67	68	69	70	71	72
Polio RdRp inh	105	100	110	102	100	122	100	101
Polio RdRp inh intensity	111	103	119	100	100	139	97	105
Mtb MenB inh	2	8	1	-1	-10	-30	-25	-53
Mtb MbtI inh	-4	28	-9	-4	-14	x	-7	-14

(73) NC(=O)c1ccccc1OCC(=O)N1CCC(Cc2ccccc2)CC1
(74) C[C@H]1C(=O)O[C@@H]2CCN3CC=C(COC(=O)[C@](C)(O)[C@]1(C)O)[C@H]23
(75) COc1cccc(NC(=O)C(C)Sc2nc(-c3ccccc3)cc(C(F)(F)F)n2)c1 (configuration not stated)
(76) NC(=O)c1cccnc1-c1nc2ccccc2s1
(77) COc1ccccc1/C=N/OCn1nnc2ccccc2c1=O
(78) CN(C)c1ccc(/C=C2/CCC/C(=C\c3ccc(N(C)C)cc3)C2=O)cc1
(79) Cc1ccc(Cn2nc(C)c(/C=C/C(=O)OCc3nc4ccccc4c(=O)n3CC#N)c2C)cc1
(80) COCc1c(CSSCc2cnc(C)c(O)c2COC)cnc(C)c1O

assay / entry	73	74	75	76	77	78	79	80
Polio RdRp inh	106	100&102	102	101	99	116	x	86*
Polio RdRp inh intensity	95	101&97	102	103	99	131	x	83*
Mtb MenB inh	-40	-8&-9	-6	-14	4	-12	-21	38*
Mtb MbtI inh	-8	-16&-12	1	42	-37	0	8	22

(81) Cc1cccnc1NC(=O)C(F)(F)C(F)(F)C(F)(F)F
(82) CC1CCCCN1c1nnc(NC(=O)NC2CCCC2)s1 (configuration not stated)
(83) CN(C)S(=O)(=O)c1ccc(C(=O)N2CCN(C(=O)c3ccccc3)CC2)cc1
(84) Cc1ccc(CN2C(=O)CN(C3CCCC3)C(=O)C2c2ccc(F)cc2)cc1 (configuration not stated)
(85) O=C(c1nc2ncccn2n1)N1CCc2ccccc2C1
(86) O=C(CSc1nnc(CNC(=O)c2ccco2)o1)NCc1ccccc1
(87) CC1CC(C)CN(c2ccc(NS(=O)(=O)c3ccccc3)cc2C(=O)O)C1 (configuration not stated)
(88) CN1CCc2nc(NC(=O)Cc3coc4cc5c(cc34)CCC5)sc2C1

assay / entry	81	82	83	84	85	86	87	88
Polio RdRp inh	102	100	100	100	100	103	101	104
Polio RdRp inh intensity	99	103	98	102	94	107	100	97
Mtb MenB inh	-52	10	-15	-22	-5	4	-3	-17
Mtb MbtI inh	90	-17	-5	-1	11	0	-8	-6

(89) O=C(O)CCCC(=O)NC1CCCc2ccccc21 (configuration not stated)
(90) CCCNC(=O)C1=C(C)C(=O)OC12CCCCC2
(91) O=C(NC(=S)Nc1ccc2[nH]c(=O)[nH]c2c1)c1ccccc1Br
(92) Cc1nc2ccccc2c(=O)n1NCc1ccccc1Br
(93) O=C1CCN(C(=O)CCCSc2nc3ccccc3[nH]2)CC1

assay / entry	89	90	91	92	93
Polio RdRp inh	107	103	102	104	105
Polio RdRp inh intensity	108	105	99	103	102
Mtb MenB inh	16	-29	-8	5	4
Mtb MbtI inh	0	-7	54	-3	-14

# A different layout for part of the listing above.
no. | SMILES | Polio RdRp inh | Polio RdRp inh intensity | Mtb MenB inh | Mtb MbtI inh
89 | O=C(O)CCCC(=O)NC1CCCc2ccccc21 (configuration not stated) | 107 | 108 | 16 | 0
90 | CCCNC(=O)C1=C(C)C(=O)OC12CCCCC2 | 103 | 105 | -29 | -7

# Part of the list above, reformatted:
No. | SMILES | Polio RdRp inh | Polio RdRp inh intensity | Mtb MenB inh | Mtb MbtI inh
89 | O=C(O)CCCC(=O)NC1CCCc2ccccc21 (configuration not stated) | 107 | 108 | 16 | 0
90 | CCCNC(=O)C1=C(C)C(=O)OC12CCCCC2 | 103 | 105 | -29 | -7
91 | O=C(NC(=S)Nc1ccc2[nH]c(=O)[nH]c2c1)c1ccccc1Br | 102 | 99 | -8 | 54
92 | Cc1nc2ccccc2c(=O)n1NCc1ccccc1Br | 104 | 103 | 5 | -3
93 | O=C1CCN(C(=O)CCCSc2nc3ccccc3[nH]2)CC1 | 105 | 102 | 4 | -14

# Compound activity deposited in PubChem BioAssay by ICCB-Longwood Screening Facility, Harvard Medical School.
